Tg IFNy HTS: T. gondii growth inhibition under IFN-gamma | Toxoplasma gondii growth in IFN-gamma-treated host cells; stronger effect = lower value; reference of the scale not given here | 69,000 compounds, 3.8% hits | activity change, negative = inhibition, %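 (about 20 µM by stock and volumes)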;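 active = below -70%; inconclusive = fit judged invalid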;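 also: host cells are HeLa cells infected with Toxoplasma gondii; parasite growth read as luciferase light; one replicate is shown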
An asterisk follows results filed as active; i = inactive; ? = inconclusive; & = joins results of further samples. A portion of the library; rates above refer to the full screens.

SMILES	Tg IFNy HTS
CC(C)c1ccc(NC2CCCN(C(=O)c3cnc(C4CC4)[nH]c3=O)C2)cc1 (stereo unspecified)	-2
COc1cc(C(=O)Nc2cccc(-c3nnc(-c4ccco4)o3)c2)ccc1OC(C)=O	21
CN1c2ncccc2C(=O)NC12CCN(C(=O)Cn1cnc3ccccc3c1=O)CC2	43
CCOc1ncnc2c1CCN(C(=O)c1cc(C)on1)CC2	-51
CCc1nc(-c2c(-c3ccccc3)ncn2[C@@H](C)c2ncccc2C)c(C)[nH]1	16
COc1ccc(-c2nc3c(s2)CN(S(=O)(=O)c2cc(C)cc(C)c2)CC3)cc1	-116*
CCN1CCN(C(=O)c2nc(-c3ccc(Cl)cc3)n3c2CCCCC3)CC1	114
Nc1c(Br)cc(Br)cc1CNC1CCC(O)CC1 (stereo unspecified)	2
Cc1ccc(NC(=O)C(=O)NCCc2sc(-c3ccc(Cl)cc3)nc2C)c(C)c1	118
N[C@@H](Cc1cc(CP(=O)(O)O)cc(-c2ccccc2Cl)c1)C(=O)O	28
O=C(c1ccccc1C1CCNC1)N1CCc2ncccc2C1 (stereo unspecified)	4
Cc1nnc(N2CCC3OCCCC3(COCC(=O)N(C)C)C2)s1 (stereo unspecified)	144
Cc1ccc(C(=O)N2C[C@@H]3CCN(CCN4CCCC4)C[C@H]3C2)cc1	-2
Fc1cccc(Cl)c1CSc1nnc(-n2cccc2)s1	137
Cc1cccc(-c2nc(Cc3noc(CNC(=O)c4ccccc4)n3)c(C)o2)c1	27
CCC(=O)Nc1ccc2c(c1)C(=O)N(C)C[C@H](OC)[C@H](C)CN(C(=O)Cc1cccnc1)[C@@H](C)CO2	45
Cc1nc2ncccn2c1C(=O)N1CC[C@@H](c2ccc3c(c2)OCO3)[C@H](O)C1	3
C/C=C/c1ccc([C@H]2[C@@H](CNC(C)C)N(C(=O)c3ccccn3)[C@H]2CO)cc1	-33
O=C1Cc2ccccc2C(c2ccccc2)N1 (stereo unspecified)	11
CCCNC(=O)[C@H]1[C@H](CO)[C@H]2Cn3c(ccc(/C=C/c4ccccc4)c3=O)[C@H]2N1CC1CC1	-53
CCOC(=O)c1c(C)nn(-c2ncccc2NC(=O)NC(C)C)c1C	7
C=CCN(Cc1ccccc1OC)C(=O)C1CCN(C(C)=O)CC1	4
Cc1cccnc1CN(C)C1CCN(Cc2cccnc2)CC1	-1
Cc1ccc(Nc2nc(C(=O)Nc3ccc(F)cc3F)nc3ccccc23)cc1	58
CCN1C(=O)CCc2cc(NC(=O)c3ccn(CC)n3)ccc21	165

Of the compounds above, these contain an aryl methoxy group.
SMILES	Tg IFNy HTS
COc1cc(C(=O)Nc2cccc(-c3nnc(-c4ccco4)o3)c2)ccc1OC(C)=O	21
COc1ccc(-c2nc3c(s2)CN(S(=O)(=O)c2cc(C)cc(C)c2)CC3)cc1	-116*
C=CCN(Cc1ccccc1OC)C(=O)C1CCN(C(C)=O)CC1	4

The results go on:
SMILES	Tg IFNy HTS
C[C@@H](C1CCCCC1)n1c(C2CC2)n[nH]c1=O	-9
Cn1c(CSCCOc2ccccc2)nnc1SCc1ccc(Cl)cc1Cl	-43
COc1ccc(NC(=O)N2CCC3(CC2)NC(=O)c2ccccc2N3C)c(OC)c1	i
CN(Cc1ccc(-n2ccnc2)cc1)Cc1ncc[nH]1	-15
Cc1cc(=O)[nH]c(NCCNCC(=O)Nc2ccc(Cl)c(C)c2)n1	46
CCCCCc1ccc(-c2nnc(N)s2)cc1	35
C[C@@H]1CN([C@H](C)CO)C(=O)c2cc(NC(=O)Cn3cnnn3)ccc2O[C@@H]1CN(C)Cc1ccc(C(=O)Nc2ccccc2N)cc1	11
O=S1(=O)C=CC(Sc2nc3ccccc3[nH]2)C1 (stereo unspecified)	-10
O=C(CCC1N=C2c3ccccc3N=C(SCc3cccc(Cl)c3)N2C1=O)NCc1ccco1 (stereo unspecified)	-4
CS(=O)(=O)Cc1ccc(N2C[C@@H]3[C@H](C2)[C@H]2CC[C@@H]3O2)nc1	10
C[C@H]1CN([C@@H](C)CO)C(=O)CCCn2cc(nn2)CO[C@@H]1CN(C)C(=O)c1ccc(N2CCN(C)CC2)cc1	15
O=C(NCc1noc(Cc2ccccc2)n1)c1cccc2ccnn12	7
Cc1nc(C)c(C(=O)NC(C)c2ccncc2)s1 (stereo unspecified)	-6
COc1cccc(CN2CCc3nc(SCc4nc(-c5ccccc5)oc4C)[nH]c(=O)c3C2)c1	19
O=C1CCC2(CCN(c3ncccn3)CC2)N1Cc1cccc(F)c1	-54
C[C@@H]1CCCCO[C@@H](CN(C)C(=O)CCCN(C)C)[C@@H](C)CN([C@H](C)CO)C(=O)c2cc(NS(=O)(=O)c3ccc(Cl)cc3)ccc2O1	21
CN1C[C@@H]2[C@H](c3ccccc31)[C@@H](CO)N2C(=O)C1CCOCC1	9
CCc1ccc2oc(=O)cc(CN3CCN(Cc4nc(-c5ccc(Cl)cc5)oc4C)CC3)c2c1	-2
O=C1N=C(c2ccccc2)C(c2ccccc2)N1 (stereo unspecified)	159
Cc1cccc2[nH]c(C3CCN(C(=O)c4cnn5c4CCCC5)CC3)nc12	33
COCCCNC(=O)N1CCC2(CC1)Nc1cc(F)ccc1-n1cccc12	153
CC(=O)NCCOc1ccc(C(=O)N2C[C@@H]3C4CCC(CC4)[C@@H]3C2)cc1	4
Cc1cc(CN(C)Cc2ccc(-n3ccnc3C)cc2)n[nH]1	-43
COc1ccc2c3c(n(C)c2c1)[C@@H](CO)N(C(=O)Nc1ccc(F)cc1)CC31CCN(S(=O)(=O)c2cccc(C)c2)CC1	-75*
CC(=O)N1C(=O)C2(Nc3ccccc3N2)c2ccccc21	15
SMILES	Tg IFNy HTS
Cc1cc(N2CCCN(Cc3nc(C)n4ccccc34)CC2)ccn1	10
Cc1ccccc1S(=O)(=O)N1CCC2(CC1)Nc1ccc(C)c(C)c1-n1cccc12	-1
CC(C)c1ccc(C(=O)Nc2ccccc2)cc1	-9
C/C=C/c1cccc(-c2nc(C(=O)NCc3ccccn3)cc3c2[C@H](CCO)N([S@@](=O)C(C)(C)C)C3)c1	7
CO[C@H]1COC[C@@H]1NC(=O)c1ccc(CSc2ncccn2)o1	5
CN(CCc1ccccn1)c1nccc(CCC(F)(F)F)n1	9
COc1cccc(OCCCn2cncc2-c2cn(C)nc2C)c1	-1
O=C1N(c2ccccc2)CCC12CCN(Cc1cc3n(n1)CCNC3)CC2	-7
c1cnc(N2CC[C@@H]3[C@@H]2CCN3c2nncs2)nc1	-43
C=C[C@@]1(C)CC(=O)[C@]2(O)[C@@]3(C)[C@@H](O)CCC(C)(C)[C@@H]3[C@H](OC(=O)CCN(C)C)[C@H](OC(C)=O)[C@@]2(C)O1	-6
Cc1cccc(NC(=O)CN2C(=O)CCc3cc(S(=O)(=O)N4CCCCC4C)ccc32)c1 (stereo unspecified)	-62
CCN1c2cc(C)ccc2-n2cccc2C12CCN(C(=O)Nc1ccccc1Br)CC2	39
O=C(CN1C(=O)c2ccccc2S1(=O)=O)Nc1ccccc1	1
COc1ccc(S(=O)(=O)Nc2ccc3c(c2)C(=O)N([C@@H](C)CO)C[C@H](C)[C@H](CN(C)S(=O)(=O)c2ccc(Cl)cc2)OCCCC[C@@H](C)O3)cc1	-112*
Cn1cnc(NC(=O)C2CC(=O)N(c3cccc(F)c3)C2)n1 (stereo unspecified)	-13
Cc1ccc(S(=O)(=O)Nc2ccc3c(c2)C(=O)N([C@H](C)CO)C[C@H](C)[C@H](CN(C)Cc2ccc(C(F)(F)F)cc2)O3)cc1	?
O=C(Cc1nn[nH]n1)Nc1ccc(F)c(Cl)c1	-45
Cc1cc(C)c2[nH]c(=O)c(C(c3nnnn3C(C)(C)C)N3CCc4ccccc43)cc2c1 (stereo unspecified)	11
N#Cc1cccc(-c2ccc3c(c2)[C@H]2[C@H](CCN2C(=O)c2ccccc2F)[C@@H](CO)N3)c1	-47
CC(=O)N1CCCC1c1nnn2cc(C3CC3)ccc12 (stereo unspecified)	-11
Cc1cnccc1CN(C)Cc1cc2n(n1)CCNC2	-11
COc1ccc(C(=O)N2CCC(n3cc(C(C)(C)C)nn3)CC2)c(OC)n1	7
Cc1cc(C)n(NC(=S)NC2CCCCC2)c(=O)c1C#N	8
CCc1cnc(C)nc1N1CC(c2ccncc2)C1	5
N#CCSC1=Nc2ccccc2C2=NC(CC(=O)NCc3ccc4c(c3)OCO4)C(=O)N12 (stereo unspecified)	-46
SMILES	Tg IFNy HTS
Cc1cccc2c(C(=O)N(C)C(C)C)cc(-c3cnc(-c4cccnc4)nc3)nc12	68
Cc1ccc(-c2nc(CN3CCN(C(=O)NCCc4ccccc4)CC3)c(C)o2)cc1	1
Cc1ccccc1NC(=O)N1CCC(c2nc(CCNC(=O)C(C)C)cs2)CC1	60
CC1=C(Oc2ccc(Cl)cc2)C(C)(O)N=C(C(F)(F)F)N1 (stereo unspecified)	-24
COc1ncccc1CN1CCOc2c(O)cc(-c3ccc(C)s3)cc2C1	-63
CC(=O)N1CCN(C)CC1	11&2
Cc1nc(-c2ccccn2)nc(SCc2ccccc2)c1Cl	-89*
Cn1c(CNC(=O)C2CCC2)nc2c1CN(S(=O)(=O)c1cccs1)CC2	68
CC1CN(CC(=O)NCC(C)n2cncn2)CC(C)O1 (stereo unspecified)	2
COc1ccc(C)cc1-n1cnnc1C1CC(=O)N(C)C1 (stereo unspecified)	1
C[C@@H]1CN([C@H](C)CO)C(=O)c2cc(NS(=O)(=O)c3cn(C)cn3)ccc2O[C@@H](C)CCCCO[C@@H]1CN(C)Cc1ccc2c(c1)OCO2	-31
COc1ccccc1-c1cccc(-c2nc(C(=O)NCc3ccncc3)cc3c2[C@H](CCO)N([S@@](=O)C(C)(C)C)C3)c1	-2
Cn1nnnc1SCCNC(=O)CC1COCCN1 (stereo unspecified)	12
O=C1Nc2ccccc2NC12CCN(Cc1cc3n(n1)CCNC3)CC2	-4
CCCC(NC(=O)C(C)(C)NC(=O)c1cccs1)c1cccs1 (stereo unspecified)	22
CO[C@@H]1CN(C)C(=O)c2ccc(NC(=O)c3cc(C)on3)cc2OC[C@H](C)NC[C@@H]1C	-54
Cc1ccccc1Cc1nnc(NC(=O)C(C)N2CCCC2)s1 (stereo unspecified)	-48
O=C(NCCc1nc2c(s1)CCCC2)c1cc(=O)c2ccccc2o1	4
C[C@H](CO)N1C[C@H](C)[C@@H](CN(C)C(=O)Nc2ccc(F)cc2)Oc2c(cccc2N(C)C)C1=O	36
CO[C@H]1CC[C@H]2CCN(C)C(=O)[C@@H](C)N(C)C(=O)c3cccc(C#N)c3OC[C@@H]1O2	29
O=S(=O)(c1ccc(F)cc1)N1CCc2nc(-c3ccccc3)sc2C1	45
C[C@H]1CN([C@@H](C)CO)C(=O)CCCn2nncc2CO[C@@H]1CN(C)Cc1cccc(C(F)(F)F)c1	?
O=C(CSCC(=O)Nc1ccccc1-c1ccccc1)Nc1ccccc1	1
Cc1ccc(C(=O)N2CCC3(CC2)CC(CC(=O)NCC2CC2)c2ccccc23)o1 (stereo unspecified)	-13
N#C[C@H]1[C@H](c2ccc(C3=CCCCC3)cc2)[C@@H](CO)N1S(=O)(=O)c1ccccc1	-34
SMILES	Tg IFNy HTS
COc1ccc(-c2cc(C(=O)NCC3(O)CCCNCC3)[nH]n2)cc1 (stereo unspecified)	-1
NCC1Cc2cc(-c3nccc4occc34)cc(Cl)c2O1 (stereo unspecified)	1
CCOC(=O)c1nnsc1N1CCC(c2ccccc2)CC1	-64
COc1ccc2c3c([nH]c2c1)[C@@H](CO)N(C(=O)c1ccncc1)CC31CN(C)C1	-43
C=CCN(Cc1cccc(OC)c1)C(=O)c1sc(NC)nc1C	?
Cc1nnsc1CN(C)C(=O)C(=O)c1ccco1	5
COC(=O)c1cc(OC)c2c(c1-c1c(C(=O)OC)cc(OC)c3c1OCO3)OCO2	-4
O=C(c1ccccc1)N1CCC(NC2C=CS(=O)(=O)C2)CC1 (stereo unspecified)	3
CC(=O)N1CC(=O)N(c2ccccc2)CC12CCN(C(=O)C1CCOCC1)C2 (stereo unspecified)	3
CCC(NCc1c(C(=O)N(C)Cc2ccccc2)nc2ccccn12)c1ccc(F)cc1 (stereo unspecified)	-13
O=C(C[C@@H]1CC[C@H]2[C@@H](COC[C@H](O)CN2C(=O)c2ccncc2)O1)NCc1cc(F)cc(F)c1	-10
Cc1ccc(C(=O)NCCc2sc(-c3ccc(C)cc3)nc2C)cc1	i
CCCc1cnc(-c2cc(F)ccc2C)nc1	14
CC(O)CCCCn1c(=O)c2c(ncn2C)n(C)c1=O (stereo unspecified)	5
COc1ccc(NC(=O)N2CCN3CCNC(=O)C3C2)cc1OC (stereo unspecified)	1

In the list so far, these have an NH in an aromatic ring.
SMILES	Tg IFNy HTS
CC(C)c1ccc(NC2CCCN(C(=O)c3cnc(C4CC4)[nH]c3=O)C2)cc1 (stereo unspecified)	-2
CCc1nc(-c2c(-c3ccccc3)ncn2[C@@H](C)c2ncccc2C)c(C)[nH]1	16
C[C@@H](C1CCCCC1)n1c(C2CC2)n[nH]c1=O	-9
CN(Cc1ccc(-n2ccnc2)cc1)Cc1ncc[nH]1	-15
Cc1cc(=O)[nH]c(NCCNCC(=O)Nc2ccc(Cl)c(C)c2)n1	46
O=S1(=O)C=CC(Sc2nc3ccccc3[nH]2)C1 (stereo unspecified)	-10
COc1cccc(CN2CCc3nc(SCc4nc(-c5ccccc5)oc4C)[nH]c(=O)c3C2)c1	19
Cc1cccc2[nH]c(C3CCN(C(=O)c4cnn5c4CCCC5)CC3)nc12	33
Cc1cc(CN(C)Cc2ccc(-n3ccnc3C)cc2)n[nH]1	-43
O=C(Cc1nn[nH]n1)Nc1ccc(F)c(Cl)c1	-45
Cc1cc(C)c2[nH]c(=O)c(C(c3nnnn3C(C)(C)C)N3CCc4ccccc43)cc2c1 (stereo unspecified)	11
COc1ccc(-c2cc(C(=O)NCC3(O)CCCNCC3)[nH]n2)cc1 (stereo unspecified)	-1
COc1ccc2c3c([nH]c2c1)[C@@H](CO)N(C(=O)c1ccncc1)CC31CN(C)C1	-43
